Anaer choline gr: blocks anaerobic gram-negative growth on choline | Gram-negative bacterium anaerobic choline minimal medium, absorbance growth; hits give low values; many inactives read as strong as hits in the columns shown | calls only | 55,000 tested, 0.2% active | AID 1963822;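 active = growth z-score on choline under -2 at 7 or 20 h with little or no fall on glycerol, limits in tiers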;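 note: stock transfer was 300 nL into about 50 µL; the organism is E. coli; final concentration not given here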
Anaer choline gr early: also measured in Anaer choline gr; calls as there; z-score; measured here: choline growth z-score, timepoint 1;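 score of optical density at 7 h as mean of two plates; lower means less growth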
* = called active by the depositor; i = inactive; & = joins results of further samples. Not all compounds are listed; count on the stated rates, not on these rows.

SMILES | Anaer choline gr | Anaer choline gr early
CCCCNC(=O)c1cc(-c2ccccc2F)nc2n[nH]c(-c3cccc(OC)c3)c12 | i | -2.5
CNC(=O)c1nn(-c2ccc(C)cc2)nc1CO | i | -1.3
CCCc1cc(Sc2ccc(NC(=O)c3ccccc3OC)cc2)n2ncnc2n1 | i | 0.39
O=C(c1ccccc1)n1cnc2ccccc21 | i | 0.43
COCc1c(C(C)C)nc(C(C)C)c(C=CC(O)CC(O)CC(=O)O)c1-c1ccc(F)cc1 (stereo not given) | i | 0.38
Cc1nc(Cn2c(=O)oc3cc(S(=O)(=O)NCc4cccnc4)ccc32)no1 | i | -0.04
OC(Cn1cncn1)(Cn1cncn1)c1ccc(F)cc1F | i | 0.83&0.57
Brc1ccc(-c2noc(CSc3ccc(-c4ccc5c(c4)OCO5)nn3)n2)cc1 | i | 0.94
Cc1nc(Nc2ccc(NS(=O)(=O)c3cccc(Br)c3)cc2)cc(N2CCCC2)n1 | i | 0.99
Cc1cc(N2CCc3ccccc32)nc(-n2nc(C)cc2C)n1 | i | -1
Cc1ccccc1CSc1nc(=O)n(CCc2ccccc2)c2c1CCC2 | i | 0.68
Cc1ccc(N2C(=O)c3sc4nc(C)cc(C)c4c3NC2C)cc1 (stereo not given) | i | -0.54
Cc1sc(-c2ccno2)cc1S(=O)(=O)NC1CCCCCCC1 | i | 0.17
O=C(Nc1ccc2c(c1)OCO2)c1nnc(C2CCCN2C(=O)C2CC2)s1 (stereo not given) | i | -0.49
CCn1c(=O)n(CC)c2cc(N3CCCCC3)c(NC(=O)Nc3cc(OC)ccc3OC)cc21 | i | 1.2
CN1CCCn2nc(C3CCN(C(=O)C4CCCC4)CC3)cc2C1=O | i | 0.01
Cc1ccc(NC(=O)NCCC2CCN(S(=O)(=O)c3ccccc3)CC2)c(C)c1 | i | -0.82
Cc1cc(C2CCCN2S(=O)(=O)c2ccc(F)c(Cl)c2)on1 (stereo not given) | i | 0.6
CN(Cc1ccccc1)C(=O)c1cccn2c(=O)c3c4c(sc3nc12)CCCC4 | i | -0.37
c1ccc(-c2nnc3sc(-c4c[nH]c5ccccc45)nn23)cc1 | i | 0.43
O=c1[nH]c(Nc2nc(-c3ccccc3)c3cc(Cl)ccc3n2)nc2ccccc12 | i | -1.8
CC(C)NC(=O)N1CCC(N2CCN(Cc3ccccc3)C(=O)C2=O)CC1 | i | 0.31
CCn1nccc1C1CCCN1S(=O)(=O)c1cc(OC)ccc1OC (stereo not given) | i | 0.14
CCOC(=O)c1ccccc1NC(=O)Cn1c(=O)n(Cc2nc(C)no2)c(=O)c2ccccc21 | i | -1.1
CNC(C)C(=O)NC(C(=O)N1CCCC1C(=O)Nc1snnc1-c1ccccc1)C1CCCCC1 (stereo not given) | i | 0.28
More structures:
SMILES | Anaer choline gr | Anaer choline gr early
CC(=O)N1CCCc2cc(S(=O)(=O)N3CCCC(C(=O)NCCN(C)C)C3)ccc21 (stereo not given) | i | 0.4
NC(=O)CSc1nc2c(cnn2CCO)c(=O)[nH]1 | i | 0.07
CC1CCN(CCNC(=O)C2CCCN(c3cc(=O)n(C)c(=O)n3C)C2)CC1 (stereo not given) | i | 0.69
CCC(=O)Nc1ccc2c(c1)nc(CN1CCN(C(C)=O)CC1)n2C | i | -1.7
O=C(NCCN1CCCCC1)C1=Cc2ccccc2OC1 | i | -1.2
CNc1oc(-c2ccc(S(=O)(=O)N(C)Cc3ccccc3)cc2)nc1C#N | i | -0.2
CCc1ccc(S(=O)(=O)c2cnc(N3CCC(C)CC3)nc2N)cc1 | i | -2
CCOc1ccc(S(=O)(=O)N2CCC(C)CC2)cc1-c1nc(C)no1 | i | 0.81
COc1cccc(C(=O)N2CCC(N3CCN(Cc4ccc(C)cc4)C(=O)C3=O)CC2)c1 | i | -0.16
O=C(Nc1ccc(Cl)cc1)c1cnn2c1NC(c1ccc(Br)cc1)=CC2c1ccccc1F (stereo not given) | i | 0.53
CCc1nn2c(=O)c(S(=O)(=O)N3CC(=O)N(CCc4ccccc4)C(=O)C3)c(C)nc2s1 | i | 1.2
CCN(Cc1ccccc1)S(=O)(=O)c1ccc(C(=O)Nc2sc3c(c2C(N)=O)CCC3)cc1 | i | 0.96
Cc1ccc(CNc2ncnc3sc4c(c23)CCCC4)cc1 | i | -0.12
Cn1nccc1C(=O)N1CCCC1c1cccc(F)c1 (stereo not given) | i | 0.15
N[C@@H](Cc1ccc(F)cc1)C(=O)O | i | -0.39
CN1C(=O)CCc2cc(NC(=O)C3CC3)ccc21 | i | -0.29
Cc1noc2c1C(c1cccnc1)C1=C(CC(c3ccccc3)CC1=O)N2 (stereo not given) | i | -0.74
Cc1nc2ncccc2c(=O)n1-c1cccc(NC(=O)c2ccc(F)cc2)c1 | i | -0.5
CN(C)c1nc(NCc2ccc(Cl)cc2)c2cnn(C)c2n1 | i | 0
O=C(c1cnc2ccc(F)cc2c1S(=O)(=O)c1ccc(Br)cc1)N1CCOCC1 | i | -1.2
Cc1cc(C)c2c(n1)SCCN2C(=O)NCC(=O)NC(C)C | i | 1.2
C=CCN1CC(c2nc3ccccc3[nH]2)CC1=O (stereo not given) | i | -0.85
Cc1oc2ncn(CCC(=O)NC(C)C)c(=O)c2c1C | i | -0.7
COC(=O)[C@H](Cc1ccccc1)NC(=O)N1CCn2c1nc1ccccc12 | i | 0.83
O=c1c2cc3c(cc2nc(SCc2nc(-c4cccc(F)c4)no2)n1-c1ccc(F)cc1)OCO3 | i | -0.6

Gathered by group: the compounds so far with an aryl methoxy group
SMILES | Anaer choline gr | Anaer choline gr early
CCCCNC(=O)c1cc(-c2ccccc2F)nc2n[nH]c(-c3cccc(OC)c3)c12 | i | -2.5
CCCc1cc(Sc2ccc(NC(=O)c3ccccc3OC)cc2)n2ncnc2n1 | i | 0.39
CCn1c(=O)n(CC)c2cc(N3CCCCC3)c(NC(=O)Nc3cc(OC)ccc3OC)cc21 | i | 1.2
CCn1nccc1C1CCCN1S(=O)(=O)c1cc(OC)ccc1OC (stereo not given) | i | 0.14
COc1cccc(C(=O)N2CCC(N3CCN(Cc4ccc(C)cc4)C(=O)C3=O)CC2)c1 | i | -0.16

Returning to the listing with the five entries that preceded the break.
SMILES | Anaer choline gr | Anaer choline gr early
Cc1cc(C)c2c(n1)SCCN2C(=O)NCC(=O)NC(C)C | i | 1.2
C=CCN1CC(c2nc3ccccc3[nH]2)CC1=O (stereo not given) | i | -0.85
Cc1oc2ncn(CCC(=O)NC(C)C)c(=O)c2c1C | i | -0.7
COC(=O)[C@H](Cc1ccccc1)NC(=O)N1CCn2c1nc1ccccc12 | i | 0.83
O=c1c2cc3c(cc2nc(SCc2nc(-c4cccc(F)c4)no2)n1-c1ccc(F)cc1)OCO3 | i | -0.6
Cc1cc(N2CCN(CCO)CC2)n2nc(C(F)(F)F)c(-c3ccc(F)cc3)c2n1 | i | 0.36
CCc1ccc(C2=CC(c3ccc(Br)cc3)n3ncc(C(=O)Nc4ccccc4)c3N2)cc1 (stereo not given) | i | 0.32
CCOc1ccccc1-c1nn2c(CSc3ccccc3)nnc2s1 | i | 1.2
Cc1ccccc1CNc1nc2nc(C(C)C)cc(=O)n2[nH]1 | i | -1.1
O=C(Nc1ccccc1Br)N1CCCN(c2ccc(=O)n(-c3ccc(F)cc3)n2)CC1 | i | 0.33
Cc1c(C)n(-c2ccc(F)cc2)c2ncnc(Nc3ccc(F)c(F)c3)c12 | i | 0.76
Cc1ccc(C2=CC(c3ccc(C)cc3)n3nc(NS(=O)(=O)c4ccccc4)nc3N2)cc1 (stereo not given) | i | 0.48
COc1ccc(NC(=O)Cn2c3ncccc3c(=O)n2-c2ccccc2)cc1Cl | i | -1.1
Cc1c(CCNC(=O)c2ccc(F)cc2)sc2nc(-c3ccc(F)cc3)nn12 | i | 0.35
CN(C)c1ccc(C(=O)NCc2nc3cccnc3n2Cc2ccccc2)cc1 | i | 1.1
C=Cc1ccc(COC(=O)c2nnn(-c3ccc(C)c(F)c3)c2C)cc1 | i | 2.7
CS(=O)(=O)Nc1cc(C(=O)O)ccc1N1CCN(c2ccc(Cl)cc2)CC1 | i | 0.31
Cc1ccccc1CNC1=NCCNC12CCC(C)CC2 (stereo not given) | i | -0.38
CCOC(=O)N1CCC2(CC1)N=C(c1ccc(C)cc1)CC(c1cc(Cl)ccc1O)N2 (stereo not given) | i | -0.3
CC(C)C(=O)Nc1nc2cc(NC(=O)c3[nH]nc4c3CCc3ccccc3-4)ccc2s1 | i | 0.1
CCN1C(=O)COc2ccc(-c3noc(C4(c5ccc(OC)cc5)CC4)n3)cc21 | i | 0.83
Cc1csc2ncc(C(=O)NC3CCCC3)c(=O)n12 | i | 0.4
Cc1cc(C)cc(NC(=O)c2nn(C)c(C(F)(F)F)c2Cl)c1 | i | -1.3
CCOc1ccc(-c2noc(Cn3cnc4c(cnn4-c4ccccc4)c3=O)n2)cc1OC | i | -0.01
O=C1C2CSC(c3cccc(Cl)c3)N2C(=O)N1c1ccc(Br)cc1 (stereo not given) | i | 0.61
CC(=O)Oc1cc2c(s1)CCN([C@H](C(=O)C1CC1)c1ccccc1F)C2 | i | -0.17
Cc1ccc(-n2cc3c(=O)[nH]cnc3n2)cc1 | i | 0.56
Cc1nn2c(N3CCN(CCO)CC3)cc(C(C)(C)C)nc2c1-c1ccc(F)cc1 | i | 1.1
COc1ccccc1N1CCN(c2ccc(=O)n(CC(=O)NCC3CCCO3)n2)CC1 (stereo not given) | i | -0.72
O=C(c1cc2occc2c(Nc2ccc(F)cc2)n1)N1CCN(c2ccccc2F)CC1 | i | -0.91

Exported with each value named: entries from further up.
> O=C(Nc1ccccc1Br)N1CCCN(c2ccc(=O)n(-c3ccc(F)cc3)n2)CC1
- Anaer choline gr: i
- Anaer choline gr early: 0.33

> COc1ccc(NC(=O)Cn2c3ncccc3c(=O)n2-c2ccccc2)cc1Cl
- Anaer choline gr: i
- Anaer choline gr early: -1.1

Continuation.
SMILES | Anaer choline gr | Anaer choline gr early
C[C@H](CCC(=O)O)[C@H]1CC[C@H]2[C@@H]3C(=O)C[C@@H]4CC(=O)CC[C@]4(C)[C@H]3CC(=O)[C@]12C | i | -0.44
O=C(c1nc(-c2ccccc2)n(-c2cccc(Cl)c2)n1)N1CCN(CCO)CC1 | i | -0.99
CCOc1cccc(C2Nc3ccc(C)cc3[C@H]3OCC[C@@H]23)c1OC (stereo not given in full) | i | -0.59
COc1ccc(C2=NS(=O)(=O)N(C)C(C(=O)Nc3ccn(Cc4ccccc4C)n3)=C2)cc1 | i | 1.4
CCC1CCCCN1C(=O)Cn1c(SCc2cccc(C)c2)nc2ccncc21 (stereo not given) | i | -0.99
Cc1nc(C)c(C(=O)Nc2cccc(C)c2C)s1 | i | 0.19
CCOc1ccc(-c2csc(Nc3cc(C)ccn3)n2)cc1 | i | -1.2
Clc1ccc(Nc2nc(NC3CCCC3)nc3c2cnn3-c2ccccc2)cc1 | i | 0.03
CC(=O)N1c2ccc(S(=O)(=O)N3CCCC3C(=O)Nc3nc4ccc(C)cc4s3)cc2CC1C (stereo not given) | i | 0.68
CCOc1ccc(-c2cc(C(=O)Oc3ccc(OC)cc3)no2)cc1 | i | 0.37
O=C(c1ccc(CSc2nc3ccncc3n2Cc2ccc(F)cc2)cc1)N1CCN(c2ccccc2)CC1 | i | 0.12
Cc1cc(C)n(C(=O)c2sccc2S(=O)(=O)N(C)c2ccccc2)n1 | i | 0.29
Cc1ccc(C)c(N2CCN(C(=O)c3[nH]c(C)c(S(=O)(=O)N4CCC(C)CC4)c3C)CC2)c1 | i | -1
O=C(NCC1CCCCC1)C1CCN(c2cnc(N3CCOCC3)nc2)CC1 | i | 1.3
COc1ccc(-c2cnc3cc(-c4ccc(C(C)(C)C)cc4)nn3c2N)cc1OC | i | 0.43
CC(C)(C)S(=O)(=O)c1ccc(NCCc2c[nH]c3ccccc23)nn1 | i | 0.04
Cc1nc2c(sc3nc(-c4ccccc4)ccc32)c(=O)[nH]1 | i | 0.47
CCOc1nc2cccc(C(=O)OC(C)OC(=O)OC3CCCCC3)c2n1Cc1ccc(-c2ccccc2-c2nn[nH]n2)cc1 (stereo not given) | i | 0.86
O=S(=O)(NC1CCCC1)c1ccc2c(c1)-c1oncc1CO2 | i | -1.2
Cc1nn(-c2ccc3nnc(C)n3n2)c2c1C(c1ccc(Cl)cc1)CC(=O)N2 (stereo not given) | i | 1.7
Cn1c(CN(c2ccccc2)S(C)(=O)=O)nnc1SCC(=O)Nc1cc(Cl)ccc1O | i | 0.6
CNC(=O)c1ccc(-c2nc3cc(NS(=O)(=O)c4cc(F)ccc4C)ccc3n2C)cc1 | i | 0.31
CCN(CC)S(=O)(=O)c1ccc2c(c1)nc(C(F)(F)F)n2CCC(=O)Nc1ccc(F)cc1 | i | 0.85
CCCCSc1nnc2c(n1)OC(c1ccc(OC)cc1OC)N(C(C)=O)c1ccccc1-2 (stereo not given) | i | 0.93
COc1ccc(OCC(=O)Nc2noc(-c3ccccc3)n2)cc1 | i | -2.4
(list continues)
SMILES | Anaer choline gr | Anaer choline gr early
CC1CCN(Cc2nc3c(c(=O)n(C)c(=O)n3C)n2Cc2ccccc2)CC1 | i | 0.87
Cn1nc(-c2nc(C3CC3)no2)c2c1CCN(C(=O)c1cc3c(s1)CCCC3)C2 | i | -0.49
COCCNC(=O)c1nc(N2CCOCC2)c2oc3ccccc3c2n1 | i | 0.29
O=C(NCc1ccc(F)cc1)c1ccc(Nc2ncc(-c3cccc(F)c3)cn2)cc1 | i | 1.8
COc1ccc(NC(=O)C2CCN(c3nc4ccccc4nc3C(F)(F)F)CC2)cc1 | i | 0.94
O=C(NCCCN1CCN(C2CCCCC2)CC1)c1c2c(nc3ccccc13)C(=O)N(C1CCCCC1)C2 | i | -1.3
CC1CCN(S(=O)(=O)c2ccc3ncn(CC(=O)Nc4ccc(F)cc4)c(=O)c3c2)CC1 | i | -0.24
CCCCOc1ccc(OCCCN2CCOCC2)cc1 | i | 0.19&0.61
Cc1cccc(-c2cnc(N3CCC(C(=O)N(C)Cc4ccccc4)CC3)nc2)c1 | i | 0.06

Screening data (PubChem)
